# PK Bst: Pyruvate Kinase | AID 361, 2006 | Potency, µM | partly purified Bacillus stearothermophilus pyruvate kinase, luminescence ATP production; ribose 5-phosphate activator present at AC10 | 1.2% of 51,000 active; in the data active means potency below about 11 µM; inconclusive means mostly about 12 µM to 25 µM; inactive means weaker than that;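 the screen sought inhibitors and activators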;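 note: potency is the fitted concentration of half-maximal effect; scaled between full activation by ribose 5 phosphate and full inhibition by luteolin; about four in five hits inhibit and the cells do not say which; series up to 57 µM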
# YjeE inh: qHTS Assay for Inhibitors of YjeE; tRNA threonylcarbamoyladenosine biosynthesis protein TsaE (Escherichia coli (strain …; purified YjeE, fluorescence polarisation of a bound ADP probe; Potency, µM; 0.05% of 71,000 active; AID 605, 2007; active = well fitted falling curve; inconclusive = weaker or top-dose-only fall, or a rising curve; inactive = flat or poorly fitted curve;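 note: top concentration of the series not given in the record; excess ADP was the control for the full effect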
#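 Purified YjeE (10 uM) with BODIPY Texas Red-labeled ADP probe (2 uM); compounds pin-transferred, 15 min at room temperature. Binding inhibition read as decreased fluorescence polarization; ADP titration as control.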
# * marks the source's active call; other numbers are inactive results; i = inactive; u = inconclusive; x = no result given.
# Values run as follows: PK Bst, YjeE inh
- CCOC(=O)c1c(N)sc(=S)c2c1CCC2
    >25.6, x
- Cc1ccccc1N1C(=O)c2cccc3c(N(C)CCO)ccc(c23)C1=O
    x, i
- CC(=O)OC(C(=O)NCc1ccc2c(c1)OCO2)c1ccccc1Cl (configuration not stated)
    x, i
- CCCN(CCC)CCNC(=O)c1cc2c(=O)n(C)c3ccccc3c2n1C
    x, i
- c1ccc(CNc2ncncc2-c2ccoc2)cc1
    x, i
- CC1CN(C(=O)Cn2cnc3c2c(=O)n(C)c(=O)n3C)CC(C)O1 (configuration not stated)
    >57, i
- N#Cc1c(NC(=O)CCC(=O)O)sc2c1CCCC2
    >25.6, x
- COCCn1c(CN2CCN(c3ccc(OC)cc3)CC2)nc2c1c(=O)n(C)c(=O)n2C
    >57, i
- Cc1ccccc1-c1cncnc1NCc1cccs1
    x, i
- O=C(O)c1cc(Cl)cc(Cc2cc(Cl)cc(C(=O)O)c2O)c1O
    x, i
- Cc1ccc(S(=O)(=O)N2CCOCC2)cc1C(=O)Nc1c(C)n(C)n(-c2ccccc2)c1=O
    >57, i
- O=C(O)CCC(=O)N1CCN(c2nc3ccccc3s2)CC1
    >57, i
- COc1ccc(CNC(=O)CSc2nnnn2Cc2ccccc2)cc1
    >57, i
- COc1ccc(OC)c(Nc2nc(-c3cccs3)cs2)c1
    x, i
- CCOC(=O)NC(=O)CSc1nnc(C)s1
    >57, i
- CC1=C/C(=N/O)C([C@H]2C=C(C)CC(C)(C)[C@@H]2O)C(C)(C)C1 (some centres not stated)
    x, i
- CCCN1c2cccc3cccc(c23)S1(=O)=O
    u, i
- O=C(CSc1nnc(Cc2cccs2)n1Cc1ccco1)Nc1ccc(Br)cc1
    >57, i
- Cc1ccc(C)c(SCC(=O)OCC(=O)Nc2ccc(S(=O)(=O)N3CCOCC3)cc2)c1
    x, i
- CCC(C)(C)NC(=O)C(c1ccccc1F)N(Cc1ccco1)C(=O)c1csnn1 (configuration not stated)
    >57, i
- COC(=O)C1=C(CSc2nnnn2C)NC(=O)NC1c1cc(C)ccc1C (configuration not stated)
    >57, i
- Cn1nnnc1SCCNS(=O)(=O)c1ccccc1
    >57, i
- N#Cc1c(N)oc(-c2ccccc2)c1-c1ccccc1
    >57, i
- CCOC(=O)c1ccc(NS(=O)(=O)c2cccc3nsnc23)cc1
    i, i
- COCc1[nH]nc2c1C1(C(=O)Nc3ccc(F)cc31)C(C#N)=C(N)O2 (configuration not stated)
    >57, i
- CCOC(=O)c1c(C)n(C)c2ccc(OC)c(NC(=O)c3cccs3)c12
    >25.6, x
- COc1ccccc1-c1nnc(NC(=O)C(C)C)s1
    >57, i
- Cn1c(=O)c2c(nc(SCCN3CCCCC3)n2Cc2ccccc2)n(C)c1=O
    >57, i
- O=C(NCC1COc2ccccc2O1)c1cn(Cc2ccc(F)cc2)nn1 (configuration not stated)
    >57, i
- CC(=O)Nc1nc(-c2ccccc2)nc(C)c1C(C)=O
    x, i
- COc1ccccc1NC(=O)CSc1nnc(C)n1Cc1ccccc1
    >57, i
- Cc1ccc(S(=O)(=O)NCC(=O)N(CC(=O)NC2CCCCC2)Cc2ccco2)cc1
    >57, i
- O=C(c1csnn1)N1CCC2(CC1)CN(c1ccccc1)C2
    x, i
- CCOC(=O)c1c(C)[nH]c(C(=O)OCC(=O)N2CCN(S(=O)(=O)c3ccccc3)CC2)c1C
    >57, i
- COCCCn1c(=NC(=O)c2ccc3c(c2)OCO3)c(C#N)cc2c(=O)n3cccc(C)c3nc21
    >57, i
- Clc1cccc2sc(N3CCCCC3)nc12
    >57, i
- O=C(CSc1nc2ccccc2c(=O)n1CC1CCCO1)NCC1CCCO1 (configuration not stated)
    >57, i
- CC(C)n1c(N2CCN(CC(=O)NCc3cccs3)CC2)nc2ccccc21
    >57, i
- O=c1c2cc(N3CCOCC3)ccc2[nH]c(=S)n1CCCN1CCN(c2ccccc2F)CC1
    >57, i
- Cc1ccc(C(C(=O)NC(C)(C)C)N(CC2CCCO2)C(=O)Cn2nnc(-c3ccc(C)o3)n2)cc1 (configuration not stated)
    >57, i
- COc1ccc(-n2c(=O)c(-c3cn(C)c4ccccc34)nc3cnc(N4CCNCC4)nc32)cc1
    x, i
- Cc1cn[nH]c1
    x, i
- C=CCc1c(C)c(C#N)c2nc3ccccc3n2c1NCCN(C)C
    >57, i
- CC(=O)c1ccc(NC(=O)c2noc3c2CCCCC3)cc1
    >57, i
- CCOC(=O)C(NC(=O)CC)(Nc1ccc(S(=O)(=O)Nc2ncccn2)cc1)C(F)(F)F (configuration not stated)
    >57, i
- CCN(CC)c1ccc(NC(=O)CN2CCN(CC(=O)Nc3ccc(F)cc3)CC2)cc1
    >57, i
- CCOC(=O)c1c(N)sc(C(=O)N2CCOCC2)c1C
    >57, i
- COc1ccc(C(=O)NC2CC3CCCC(C2)N3CC(C)C)cc1OC (configuration not stated)
    >57, i
- Cc1csc(-c2cnn(-c3ccccc3)c2NC(=O)c2ccccc2)n1
    >57, i
- CCn1c(C)c(C(C)=O)c(N2CCC(C(N)=O)CC2)nc1=S
    >57, i
- CCn1c(SCC(=O)Nc2ccccc2C(=O)OC)nnc1-c1ccc(N)cc1
    >25.6, x
- O=C(CSc1ncc(-c2ccc(F)cc2)n1Cc1ccco1)Nc1ccc2c(c1)OCO2
    >57, i
- CC(=O)Nc1nonc1NC(C)=O
    >57, i
- O=[n+]1cc(-c2ccccc2)n([O-])c2c1CCC2
    >57, i
- CCCn1c(-c2ccc(F)cc2)nc2c(NCCN(C)C)nc(C)nc21
    x, i
- CC(=O)Nc1ccc(SCC(=O)OCC(=O)NC(=O)NCc2ccco2)cc1
    >57, i
- CC(=O)c1cc(-c2ccc(F)cc2)n(CC(=O)NCc2cccs2)c1C
    >57, i
- COc1cccc(-c2nc(N3CC(C)CC(C)C3)c3ccccc3n2)c1O (configuration not stated)
    >25.6, x
- CCCCC[C@H](O)/C=C/[C@@H]1[C@@H](CCCCCCC(=O)O)[C@@H](O)C[C@H]1O
    >25.6, x
- CCCCN(C(=O)Cn1nnc2ccccc21)C(C(=O)NCCOC)c1ccc(OC)cc1OC (configuration not stated)
    >57, i

# (more compounds)
# Values run as follows: PK Bst, YjeE inh
- CC/C(=N\O)C(C)(C)/[N+]([O-])=C/c1ccc(Br)cc1
    x, i
- COCCNC(=O)C(c1cccc(OC)c1)N(Cc1cccs1)C(=O)Cn1nnc2ccccc21 (configuration not stated)
    >57, i
- COC(C(=O)Nc1cccc(F)c1)c1ccccc1 (configuration not stated)
    x, i
- CCCOc1ccc(N2CC(C(=O)NC(C)C)CC2=O)cc1 (configuration not stated)
    >57, i
- Cc1ccc2nc(-c3ccc(NC(=O)c4ccco4)cc3)[nH]c2c1
    7.2*, i
- O=C(O)c1ccccc1C1=Nc2ccc(O)cc2Oc2cc(O)ccc21
    >57, i
- CC1CCN(C(c2ccc(N(C)C)cc2)c2nnnn2C(C)(C)C)CC1 (configuration not stated)
    >57, i
- Cc1ccc(N2C(=O)CC(N3CCN(C4CCc5ccccc5C4)CC3)C2=O)cc1 (configuration not stated)
    x, i
- Cc1cc(C)nc(Sc2c(C)n[nH]c2C)n1
    >57, i
- Cc1nc(/N=C(\N)Nc2ccccc2)nc2ccccc12
    9.3*, x
- COc1ccccc1N1C(=O)C2ON(c3ccccc3)C(c3ccc(N(C)C)cc3)C2C1=O (configuration not stated)
    >25.6, x
- Cn1c(=O)n(C)c2cc(C(=O)c3ccccc3)ccc21
    >25.6, x
- Nc1c2c(nc3ccn(-c4ccccc4)c(=O)c13)CCCCC2
    >57, i
- O=C(CC(CC(=O)c1ccccc1)C(=O)O)c1ccccc1
    x, i
- NC(N)=NNC(=O)C(=O)O
    x, i
- COc1ccc(CCN2C(=O)c3[nH]nc(-c4ccccc4O)c3C2c2ccc(C)cc2)cc1OC (configuration not stated)
    >57, i
- Cn1c(=O)[nH]c(=O)c2c1nc(N1CCCC1)n2CCCSc1nc2ccccc2o1
    >57, i
- COc1ccccc1-c1c(C)nn2c(C)cc(C)nc12
    x, i
- CCn1c(SCC(=O)Nc2ccc(OC)c(OC)c2)nnc1-c1cccs1
    >57, i
- COc1cc([C@@H]2[C@H]3CNCC=C3C(C#N)=C(N)C2(C#N)C#N)ccc1OC(C)C
    >25.6, x
- CNC(=O)CN(c1cccc2ccccc12)S(C)(=O)=O
    u, i
- C[C@]12C[C@H](O)[C@H]3[C@@H](CCC4=CC(=O)CC[C@@]43C)[C@@H]1CC[C@@H]2C(=O)CO
    >25.6, i
- CCOC(=O)N1CCN(c2nc(C(F)(F)F)nc3c(C)cc(C)cc23)CC1
    >57, i
- O=C(O)[C@@H]1[C@@H](C(=O)NCc2ccccn2)[C@@H]2C=C[C@@H]1O2
    x, i
- COc1cc(S(=O)(=O)N(Cc2cccs2)CC2CCCO2)ccc1-n1cnnn1 (configuration not stated)
    >57, i
- CCOC(=O)c1cc(OC(=O)c2cccnc2)n(-c2ccccc2)n1
    >57, i
- Cc1occc1C(=O)Nc1ccccc1NC(=O)c1ccoc1C
    >57, i
- C/C(=N\O)c1c(C)c2ccccc2n1C
    >11.4, x
- Oc1ccccc1Nc1nc(NCC2CCCO2)c2ccccc2n1 (configuration not stated)
    x, i
- Cc1csc2nc(CNC(=O)c3ccco3)cn12
    >57, i
- c1cc(-c2nc3ccccc3o2)nc(-c2nc3ccccc3o2)c1
    >57, i
- O=C(Cn1ncc2c(=O)oc3ccccc3c21)N(Cc1ccco1)C1CCCCC1
    x, i
- COC(=O)CSc1nnc(-c2ccc(NS(=O)(=O)c3ccccc3)cc2)o1
    >57, i
- c1cc(-c2nc3cc(Oc4ccc5oc(-c6ccncc6)nc5c4)ccc3o2)ccn1
    >57, i
- CSc1nnc(CNC(=O)c2ccccc2)n1-c1ccc(F)cc1
    x, i
- O=C(c1cnccn1)N1CCC2(CCN(Cc3nccs3)CC2)CC1
    x, i
- COc1cccc(C2CC(c3cccc(OC)c3)n3nc(N)nc3N2)c1 (configuration not stated)
    x, i
- COc1ccc(C(=O)NCCn2cc(SCC(=O)Nc3cc(C)on3)c3ccccc32)cc1OC
    >57, i
- O=C(c1ccc(CSCc2ccccc2F)o1)N1CCN(c2ccc(N3CCOCC3)nn2)CC1
    x, i
- C[C@H](NCCN(C)C)[C@@H]1CCC2C3CCc4cc(O)ccc4[C@H]3CCC21C (some centres not stated)
    x, i
- O=C(CSc1nnc(-c2cccnc2)n1Cc1ccco1)c1ccc(Cl)c(Cl)c1
    >57, i
- CCSc1nc2c(c(=O)[nH]1)C(C(C)C)C(C#N)=C(N)O2 (configuration not stated)
    x, i
- CCOc1ccc(CCNC(=O)C(CC)n2nc(C)n3c(cc4sccc43)c2=O)cc1OCC (configuration not stated)
    >57, i
- CC(C)CN(CC(C)C)c1nc(N)c(C#N)c(CC#N)c1C#N
    >57, i
- O=C(O)CC(CC(=O)O)C(=O)O
    x, i
- COc1cc(CN2CCN(c3ccccc3F)CC2)cc(OC)c1O
    >57, i
- O=C(CCCCn1c(=O)c2ccccc2n(CC(=O)Nc2cccc(F)c2)c1=O)NCc1ccco1
    >57, i
- Nc1nc2nc3c(nc2c(=O)[nH]1)CN(c1ccc(C(=O)O)cc1)C3=O
    x, i
- CC(=O)Nc1ccccc1NC(=O)C(F)(F)F
    x, i
- NC12CC3CC(C1)CC(O)(C3)C2
    >57, i
- CC(C)C(c1nnnn1Cc1ccccc1)N(CCCO)Cc1cc2cc3c(cc2[nH]c1=O)OCO3 (configuration not stated)
    >57, i
- COc1ccc(OC)c(C(c2nnnn2C(C)(C)C)N2CCc3ccccc3C2)c1 (configuration not stated)
    >57, i
- CCC(C)c1ccc(O)c(N)c1 (configuration not stated)
    >57, i
- Cc1ccc(OCCn2c(C)c(/C=N/n3cnnc3)c3ccccc32)cc1
    x, i
- CN1C(=O)N(C)C2CC1N(C)C(=O)N2C
    >57, i
- CCOC(=O)c1c(C)[nH]c(C(=O)COC(=O)c2cn(CC)c3nc(C)ccc3c2=O)c1C
    >57, i
- CCOC(=O)N1CCN(c2nc(C)cc(C(F)(F)F)n2)CC1
    >57, i
- O=C(Oc1ccc2ccc(OC(=O)N3CCOCC3)cc2c1)N1CCOCC1
    x, i
- CCOC(=O)c1c(-c2ccc(OC)cc2)nc2nonc2c1N
    >57, i
- CN1CCN(C2=C(Cl)C(=O)N(c3ccc(Cl)c(Cl)c3)C2=O)CC1
    x, i

# Next part.
# Values run as follows: PK Bst, YjeE inh
- CN1CCCN(C(=O)c2cc(=O)[nH]c3ccccc23)c2nc3ccccc3nc21
    >57, i
- CC(=O)c1ccc(NC(=O)N2CCN(c3cccc(Cl)c3)CC2)cc1
    >57, i
- CC(=O)N(CN1C(=O)c2ccccc2C1=O)c1cccc(C)c1
    >57, i
- O=S(=O)(c1cccc(C(F)(F)F)c1)N1CCC(O)(c2cccnc2)CC1
    >57, i
- Cc1cc(C)c(C(=O)CN2C(=O)CCC2=O)cc1C
    >57, i
- C=C1CSc2nc(=O)c3c(C)c(C)sc3n21
    >57, i
- CN(C)c1ccc(/C=N\NC(=O)c2cnc3ccccc3c2)cc1
    x, i
- C[C@@]12C(=O)OC(=O)[C@]1(C)[C@H]1CC[C@@H]2O1
    x, i
- Cc1cc(Nc2ccccc2C(=O)O)nc2nc3ccccc3c(=O)n12
    >57, i

# Quoted from above, two compounds:
# Values run as follows: PK Bst, YjeE inh
- CN1CCCN(C(=O)c2cc(=O)[nH]c3ccccc23)c2nc3ccccc3nc21
    >57, i
- CC(=O)c1ccc(NC(=O)N2CCN(c3cccc(Cl)c3)CC2)cc1
    >57, i

# Compound activity (PubChem BioAssay)

# Not all compounds are listed. The share of hits here may be higher or lower than overall.
